Screening results from PubChem BioAssay.
LANA-H2A inh – blocks KSHV LANA binding to histone H2A/H2B | Q9QR71 | cell-free LANA-H2A/H2B peptide, fluorescence polarization | inhibition, % (no concentration beside the values) | 320,000 compounds, 0.6% hits; in the data active means inhibition mostly above about 10%, no sharp cut-off; inactive means mostly below about 6.7%;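 further: stock transfer was 7.5 nL into about 10 µL; 0% = median of vehicle wells and 100% = median of positive control wells; one replicate is shown; the record names a cut of 25% in any replicate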
Beta2AR agonist – agonists of human beta-2 adrenergic receptor inducing internalization; P07550; response, % (test concentration not listed); 340,000 compounds, 0.43% hits; AID 504454; Am2.2-beta2AR cells, FAP receptor internalization, flow cytometry; reference of the scale not given here;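 active means response above a set limit, near 3 SD of response in nonfluorescent compounds, cut at about 42% in these data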;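 further: stock transfer was 100 nL into about 11 µL; a reference agonist was the positive control; negative values mostly stem from fluorescent compounds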
E coli growth – inhibitors of Escherichia coli growth | OD600, 23 h; active compounds read low | AID 1053175 | OD600 absorbance (concentration not given with the values) | 330,000 compounds, 0.21% hits;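 active means OD600 absorbance below the run mean of sample wells minus 3.6 SD, in any replicate, cut at about 0.56 in these data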;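 further: stock transfer was 300 nL into about 60 µL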
HNF4A DNA FP – change in binding of human HNF4 alpha to DNA | HNF4a-FITC DNA binding, fluorescence polarization, 1 h | P41235 | AID 1224865 | activity change, % at 10 µM | 360,000 compounds, 0.3% hits; in the data active means activity change above about 30%, passing the limit was not always enough;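 further: controls were the assay level and a saturating level of protein; the project sought stronger binding though the title names inhibitors; some compounds called inactive have numbers as strong as hits; positive values seem to mean higher polarization but the record does not say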
Target sequence (P41235 whole entry, looked up): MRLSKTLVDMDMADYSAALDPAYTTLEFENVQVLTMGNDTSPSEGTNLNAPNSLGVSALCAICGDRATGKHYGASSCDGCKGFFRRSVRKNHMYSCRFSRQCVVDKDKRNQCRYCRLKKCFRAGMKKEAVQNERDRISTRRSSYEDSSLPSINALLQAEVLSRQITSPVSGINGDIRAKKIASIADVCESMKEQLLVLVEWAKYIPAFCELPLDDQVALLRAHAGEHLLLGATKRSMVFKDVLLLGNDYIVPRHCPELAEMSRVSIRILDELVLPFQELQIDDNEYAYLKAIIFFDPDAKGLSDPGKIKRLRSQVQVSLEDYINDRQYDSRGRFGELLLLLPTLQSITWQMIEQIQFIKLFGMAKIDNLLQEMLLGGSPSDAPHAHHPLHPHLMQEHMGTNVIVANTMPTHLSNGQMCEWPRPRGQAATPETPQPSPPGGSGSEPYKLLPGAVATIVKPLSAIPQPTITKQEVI
ALR inh – human ALR oxidase inhibition via reduced H2O2. purified ALR, DTT oxidation, H2O2 HRP-luminol luminescence. inhibition, % (concentration not given with the values). 290,000 compounds, 3.8% hits;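 active means mean and each replicate at 75% or more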;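 further: stock transfer was 7.5 nL into about 7.5 µL; 0% = neutral wells and 100% = wells with inactivated enzyme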
Target sequence (P55789 whole entry, looked up): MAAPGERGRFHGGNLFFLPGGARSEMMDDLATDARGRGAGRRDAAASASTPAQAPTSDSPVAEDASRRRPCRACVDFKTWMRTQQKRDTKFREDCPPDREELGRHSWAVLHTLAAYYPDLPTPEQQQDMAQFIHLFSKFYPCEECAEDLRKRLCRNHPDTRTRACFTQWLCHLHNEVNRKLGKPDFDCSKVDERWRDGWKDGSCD
FGF22 binding – FGF22 (human) thermal shift binding; AID 651658; Q9HCT0; calls only at 9.99 µM; recombinant FGF22 thermal shift, SYPRO orange fluorescence; percent of sucrose octasulfate shift, DMSO zero; 340,000 compounds, 1.5% hits;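 active means melting point raised past a set limit in the mean and every replicate; three in four hits are not shown here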
Target sequence (Q9HCT0 whole entry, looked up): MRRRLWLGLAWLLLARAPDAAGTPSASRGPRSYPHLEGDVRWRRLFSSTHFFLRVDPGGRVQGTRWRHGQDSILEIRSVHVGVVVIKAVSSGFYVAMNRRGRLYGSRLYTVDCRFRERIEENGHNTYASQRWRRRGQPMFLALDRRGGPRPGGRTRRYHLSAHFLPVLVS
UCH37 inh – human UCH37 deubiquitinating enzyme inhibition; inhibition, % (concentration not given with the values); 330,000 compounds, 0.33% hits; Q9Y5K5; purified proteasome/UCH37, Ub-AMC cleavage fluorescence;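 active means mean of two replicates above 20%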;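 further: 0% = compound-free wells with enzyme and 100% = wells lacking proteasome; stock transfer was 100 nL into about 20 µL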
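Assay system: Proteasome-bound UCH37. Buffer or medium: pH 7.4 Tris-HCl (50 mM) with ovalbumin, ATP-MgCl2, DTT. Incubation: 30 min preincubation with enzyme, 25 min cleavage at room temperature. Measured by: fluorescence, ex 355 nm, em 460 nm. Read-out basis: percent inhibition. Control set: wells without proteasome as full block, compound-free enzyme plus substrate as uninhibited.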
Numbers without * were called inactive; i = inactive; . = no result given. These rows are one share of the data (hit frequency here may not be typical).

structure	Beta2AR agonist	ALR inh	E coli growth	FGF22 binding	HNF4A DNA FP	UCH37 inh	LANA-H2A inh
CCCN1C(=O)c2cc(C(=O)O)ccc2C1O (centres undefined)	-6.2	-16.7	0.747	i	3.0	0.7	-1.0
O=C(Nc1cccc(C(F)(F)F)c1)/C(=C/c1ccco1)NC(=O)c1cccs1	-1.4	47.9	0.691	.	4.6	.	1.5
COc1cc2cc(CN(CCc3ccccc3C)C(=S)NCCCN3CCOCC3)c(=O)[nH]c2cc1OC	2.6	-18.3	0.649	i	2.3	-79.4	-5.3
O=C(NC1CCCCC1)C1CC=CCC1C(=O)OCC(Cl)=C(Cl)Cl (centres undefined)	25.1	0.0	0.742	.	-1.4	1.3	-6.6
CC1(C)CC(=O)C=C(Nc2ccccc2NC(=O)c2cnccn2)C1	4.0	-5.7	0.676	.	-3.7	2.1	0.4
CC(=Nc1ccc2c(c1)nc(CO)n2C)C1=C(O)CC(C)(C)CC1=O	-1.8	25.7	0.688	.	-0.9	5.7	-1.2
CCN1C[C@@H]2[C@@H]3C(=O)N(Cc4ccccc4)C(=O)[C@@H]3[C@](CC)(C1=O)N2C(=O)c1ccc(Br)cc1	0.8	.	.	i	-2.0	3.6	.
Cc1cc2c(SCc3ccccc3Cl)nc(N)nc2nc1C	6.6	.	0.683	i	18.8	-114.8	.
COc1ccc(S(=O)(=O)N2CCCCCC2)cc1NC(=O)Cc1ccccc1	-2.4	0.1	0.741	i	2.6	7.2	8.6
COc1ccccc1CN1CC(C(=O)NCCC2=CCCCC2)CCC1=O (centres undefined)	-0.1	-37.6	0.673	i	-0.2	10.2	4.8
CC(=O)N1c2ccc(S(=O)(=O)NCCC(=O)NCCc3ccc(Cl)cc3)cc2CC1C (centres undefined)	-2.5	-4.7	0.708	i	2.1	3.5	5.8
Cc1cccc(NC(=O)C(C)n2cc([N+](=O)[O-])cn2)n1 (centres undefined)	-2.4	-0.8	0.697	i	-0.5	3.3	3.0
Cc1ccc(Cl)cc1-n1c(SCC(=O)NCCC2=CCCCC2)nc2n[nH]c(C)c2c1=N	-9.0	-4.9	0.685	i	2.5	-0.7	3.0
O=C(NC1CCCCC1)C(c1cccnc1)N(C(=O)c1csnn1)c1ccccc1F (centres undefined)	-5.3	-0.5	0.699	i	-1.2	4.2	0.7
COc1cccc(C(=O)c2c[nH]c(C(=O)NCc3cccnc3)c2)c1	4.3	13.4	0.721	i	-3.2	5.1	-7.8
COC(=O)N/N=C(\C)c1ccc(-n2ccnc2)cc1	-9.0	0.8	.	i	0.9	.	1.9
CCOC(=O)C(C)Oc1ccc2c(-c3cccc([N+](=O)[O-])c3)cc(=O)oc2c1 (centres undefined)	-4.7	-4.4	0.679	.	-3.9	-0.6	-2.1
CCOC(=O)c1sc(-c2cccc([N+](=O)[O-])c2)cc1N	-7.2	-5.4	0.715	i	0.2	1.7	-1.0
CCn1c(CNC(C)=O)nnc1SCC(=O)c1ccc(Br)cc1	2.4	96.3*	0.645	.	-0.7	0.3	0.3
CC(C)N(Cc1nc(-c2ccccc2)no1)C(=O)c1ccc(Cl)cc1	-6.6	0.9	0.684	i	-0.5	0.4	0.8
O=C1NC2(CCCCC2)C(=O)N1CC(=O)N1CCc2ccccc21	4.6	-4.9	0.67	i	0.0	2.1	3.7
O=C(COC(=O)c1ccc(O)cc1O)NC1CC1	-2.4	13.1	0.667	i	1.9	3.7	-9.3
CCOC(=O)C(C)Oc1cccc2c(=O)n(CC(=O)NCc3ccccc3)ccc12 (centres undefined)	8.8	-0.8	0.681	i	0.9	-10.0	-3.4
OCCC1CN(Cc2ccc(Oc3ncccn3)cc2)CCN1CCc1ccccc1 (centres undefined)	-8.4	-6.2	0.695	i	-3.9	-1.3	0.9
Cc1ccccc1CSCC(=O)N/N=C/c1cccs1	-4.6	97.9*	.	.	0.2	.	2.1
COc1ccc(C)cc1NC(=O)CNCc1cccs1	-1.4	-28.6	0.657	i	3.0	4.0	0.2
O=C(O)c1ccc2c(c1)C(=O)N(c1ccc(Nc3ccccc3)cc1)C2=O	3.4	97.6*	0.627	i	-1.3	3.5	4.6
COC(=O)[C@@]1(Cc2ccc(F)cc2)[C@H]2c3cc(C(=O)N4CCCC4)n(CCO)c3C[C@H]2CN1C(=O)c1ccccc1	.	.	.	i	.	0.0	1.0
Cc1ccc(CNC(=O)COC(=O)c2ccc(S(=O)(=O)N3CCCC3)cc2)cc1	4.1	-2.9	0.756	.	0.7	-0.5	4.4
CCc1ccc(CN(Cc2cccnc2)C(=O)/C=C/c2ccc(OC)cc2)cc1	-45.4	2.1	0.638	i	60.3*	3.5	-0.4
Cc1noc(/C=C/N(C)C)c1S(=O)(=O)N1CCC(C(=O)Nc2ccc(Cl)cc2)CC1	9.2	-8.9	0.671	i	-0.1	3.3	1.0
CCN1C(=O)CSC1=Nc1ccccc1Cl	-5.3	-9.4	0.627	i	3.5	4.1	-3.2
CCOc1ccc(C(=O)N[C@H](C(=O)Nc2cccc(S(=O)(=O)N3CCOCC3)c2)C(C)C)cc1	0.6	.	0.666	.	1.0	4.3	.
Cc1cccc(NC(=O)c2ccc(S(=O)(=O)N3CCCC3)cc2)c1C	-0.1	-1.1	0.698	i	1.6	1.6	5.2
CC(C)C(NS(=O)(=O)c1cccs1)C(=O)NCc1ccc2c(c1)OCO2 (centres undefined)	-5.7	.	0.761	i	-1.3	6.7	-0.3
O=C(Cn1c(=O)c2cccn2c2ccccc21)Nc1ccc(F)cc1F	4.6	-8.7	0.699	i	-72.0	1.9	7.4
Cc1ccccc1-c1cc(C(=O)NCc2ccco2)nn1CC1CC(c2cccc([N+](=O)[O-])c2)=NO1 (centres undefined)	1.3	2.8	0.705	i	1.8	1.6	-10.9
Cc1ccc(C2=NNC(c3cccc(F)c3)S2)cc1 (centres undefined)	4.1	.	0.686	.	-4.8	0.7	5.9
COC(=O)c1cc(=O)n(CCc2ccc(OC)cc2)c(=Nc2ccc(F)c(Cl)c2)s1	19.2	-9.4	0.805	i	1.9	0.6	-0.9
O=C(COc1ccc(Cl)cc1)NNC(=O)C(=O)NC1CCCCC1	-3.6	-3.3	0.65	i	1.3	0.4	-5.9
O=C(NCc1ccccc1Cl)C(=O)NCC(c1ccco1)N1CCOCC1 (centres undefined)	-0.4	-3.9	0.645	i	-1.9	-1.1	5.1
CC(C)C(c1nnnn1Cc1ccc(F)cc1)N1CCC(C(N)=O)CC1 (centres undefined)	3.9	4.1	.	i	-3.0	.	38.6*
CCCC(=O)Oc1ccc(-c2nccc(C(OC)OC)n2)cc1	-9.9	10.4	0.661	i	2.2	3.3	1.5
CCOc1ccc(CCNS(=O)(=O)c2ccc(-c3ccc(=O)[nH]n3)o2)cc1OCC	-1.6	0.0	0.712	i	-1.2	2.4	-2.3
CCOc1ccccc1N1CC(C(=O)Nc2ccc(C(=O)O)cc2)CC1=O (centres undefined)	6.7	0.8	0.736	.	-1.6	0.2	10.3
COC(=O)c1cc(S(=O)(=O)NCC2CCN(Cc3ccc(Cl)cc3)CC2)cn1C	25.0	-1.1	0.667	i	3.6	0.5	-0.1
O=C(NCCCN1CCOCC1)c1ccc(Br)cc1	5.0	.	0.743	.	0.5	-1.0	-0.9
COC(=O)c1ccccc1NC(=O)N1CCN(C/C=C/c2ccccc2)CC1	-5.3	-6.0	0.621	.	-1.8	0.2	-4.7
Cc1ccc(C=Nc2ccccc2C(N)=O)s1	14.3	.	0.657	.	4.5	-444.8	10.3
O=C(CN(CC1CCCO1)C(=O)CNS(=O)(=O)c1ccc(F)cc1)NCc1ccccc1 (centres undefined)	2.9	.	0.68	i	1.5	2.2	3.7
CCCOC(=O)Cn1cnc2scc(-c3ccc(OC)cc3)c2c1=O	-1.5	-4.3	0.669	i	-0.1	-1.7	1.5
COc1ccc(C(=O)N(Cc2sccc2C)C2CCS(=O)(=O)C2)cc1 (centres undefined)	2.6	-6.2	0.663	i	1.8	5.5	0.1
CC(=O)Oc1cccc(Nc2ncnc3ccccc23)c1	1.1	-32.4	0.61	i	-1.9	2.6	2.0
c1ccc(COc2ccccc2CNc2nn[nH]n2)cc1	0.5	0.8	0.686	i	-0.6	3.0	5.4
CCOC(=O)c1ccc(N2C(=O)C=C(N3CCOCC3)C2=O)cc1	-1.9	21.8	0.606	i	2.8	5.7	13.3
COc1cc(NC(=O)CN2C(=O)COc3ccccc32)cc(OC)c1	-0.1	.	.	i	-1.1	.	.
c1ccc(CN2CCN(C3CCCSc4ccccc43)CC2)cc1 (centres undefined)	9.0	0.0	0.656	i	3.0	6.8	3.6
Cc1ccc2nc(N(CCN(C)C)C(=O)c3ccc4ccccc4c3)sc2c1	1.2	-8.7	0.643	.	6.4	3.2	0.8
Cc1[nH][nH]c(=O)c1N=Nc1ccccc1C#N	.	-17.9	0.664	i	.	1.4	-0.5
Oc1oc(-c2ccccc2)nc1C=Nc1ccccc1	-6.8	27.0	0.715	.	2.0	4.1	0.6

Next results.
structure	Beta2AR agonist	ALR inh	E coli growth	FGF22 binding	HNF4A DNA FP	UCH37 inh	LANA-H2A inh
COc1ccc(-n2c(C)nc(N)c2C(=O)c2ccccc2)cc1	3.7	2.3	0.649	i	0.0	7.4	9.3
Cc1ccc(-c2nc(N)sc2CC(=O)OCC(=O)NCC2CCCO2)cc1 (centres undefined)	-6.0	14.9	0.692	i	4.6	3.0	-2.7
CCCSc1nnc(Cn2c(=O)sc3ccccc32)n1C	-19.6	-11.3	0.737	i	-1.3	9.2	-0.9
Fc1ccc2[nH]c3c(c2c1)CN(C(=S)NCc1ccccc1)CC3	0.1	11.2	0.63	i	-2.5	3.3	4.1
O=C(/C=C/c1ccco1)c1ccccc1O	-1.0	-3.4	0.652	i	17.1	2.0	5.7
CSCCC(NC(=O)c1ccccc1)C(=O)NCCc1ccccc1 (centres undefined)	14.2	-1.9	0.651	i	2.1	4.5	-3.2

Retrieved by structure from above:
structure	Beta2AR agonist	ALR inh	E coli growth	FGF22 binding	HNF4A DNA FP	UCH37 inh	LANA-H2A inh
COC(=O)c1cc(=O)n(CCc2ccc(OC)cc2)c(=Nc2ccc(F)c(Cl)c2)s1	19.2	-9.4	0.805	i	1.9	0.6	-0.9
CCN1C(=O)CSC1=Nc1ccccc1Cl	-5.3	-9.4	0.627	i	3.5	4.1	-3.2
O=C(NC1CCCCC1)C1CC=CCC1C(=O)OCC(Cl)=C(Cl)Cl (centres undefined)	25.1	0.0	0.742	.	-1.4	1.3	-6.6
